FGF22 binding: binders of recombinant human FGF22 by thermal shift; Q9HCT0; SYPRO orange fluorescence; percent of sucrose octasulfate shift, DMSO zero; calls only at 9.99 µM; 340,000 compounds, 1.5% hits; AID 651658;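 active = melting point raised past a set limit in the mean and every replicate; three in four hits are not shown here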
Target sequence (Q9HCT0 whole entry, looked up): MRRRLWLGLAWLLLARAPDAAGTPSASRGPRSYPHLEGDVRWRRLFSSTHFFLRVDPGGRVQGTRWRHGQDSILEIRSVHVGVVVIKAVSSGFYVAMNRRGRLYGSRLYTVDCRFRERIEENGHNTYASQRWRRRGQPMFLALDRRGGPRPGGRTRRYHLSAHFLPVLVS
Ecoli rRNA inh: inhibits bacterial ribosomal RNA function over humanized ribosomes | E. coli WT GFP vs humanized-ribosome RFP mutants, fluorescence, 24 h; active compounds read low; DMSO median 0, no signal -100 | GFP signal change (wild-type ribosome), % (no concentration beside the values) | 350,000 compounds, 1.6% hits | AID 720706;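 active = significant combined selectivity score with lowered wild-type GFP, culture density cut under 30%, mutant RFP and density less affected; inactive = any of these conditions unmet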; note: one replicate is shown; some compounds called inactive have numbers as strong as hits
AF4-AF9 inh: blocks AF4 peptide binding to human AF9. 350,000 compounds, 0.47% hits. inhibition, % at 10 µM. AID 651704. P42568. AlphaScreen, biotin-AF4 peptide binding to FLAG-AF9;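 active = every replicate reaching a set inhibition limit, whatever the replicate mean, cut at about 25% in these data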;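 note: 0% = plate neutral control median and 100% = total signal loss; the record names both 10 and 1 µM as test concentration; the first replicate is given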
Target sequence (P42568 whole entry, looked up): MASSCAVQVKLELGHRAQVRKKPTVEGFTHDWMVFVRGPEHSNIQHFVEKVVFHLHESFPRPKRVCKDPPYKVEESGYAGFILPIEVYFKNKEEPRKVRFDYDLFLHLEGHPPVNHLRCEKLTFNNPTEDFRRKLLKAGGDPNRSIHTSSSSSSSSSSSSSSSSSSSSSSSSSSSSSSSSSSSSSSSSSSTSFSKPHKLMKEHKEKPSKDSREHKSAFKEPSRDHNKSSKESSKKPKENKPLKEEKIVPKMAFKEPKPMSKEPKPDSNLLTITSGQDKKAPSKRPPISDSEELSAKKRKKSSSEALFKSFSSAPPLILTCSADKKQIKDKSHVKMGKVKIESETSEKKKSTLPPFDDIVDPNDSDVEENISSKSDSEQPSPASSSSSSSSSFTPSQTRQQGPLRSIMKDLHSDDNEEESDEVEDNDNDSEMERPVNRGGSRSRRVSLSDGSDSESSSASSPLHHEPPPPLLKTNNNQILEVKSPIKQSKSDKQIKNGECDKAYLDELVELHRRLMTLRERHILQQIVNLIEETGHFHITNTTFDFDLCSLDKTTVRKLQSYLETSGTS
Ecoli rRNA inh OD600: further read-out of Ecoli rRNA inh, marked with its call; OD600 change, %; measured here: OD600 growth;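 optical density of the mix in the first replicate; 0 = DMSO median and -100 = no signal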
Ecoli rRNA inh RFP: recorded beside Ecoli rRNA inh, whose call it bears; RFP signal change, %; measured here: RFP humanized mutant strains;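 first replicate; 0 = DMSO median and -100 = no signal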
* = called active by the depositor; i = inactive; . = not tested or not shown.

Ecoli rRNA inh	Ecoli rRNA inh RFP	Ecoli rRNA inh OD600	FGF22 binding	canonical_smiles	AF4-AF9 inh
i	.	.	i	O=C(C[C@@H]1CC[C@@H]2[C@H](COC[C@@H](O)CN2CCC(F)(F)F)O1)NCc1ccc2c(c1)OCO2	1.4
1	0.0	3	i	O=C(C1CCC1)N1CCCCN2[C@@H](CO)[C@H](c3ccc(-c4ccncc4)cc3)[C@@H]2C1	-1.6
-2	-1.9	-2	i	Cc1cccc(NC(=O)CN2C(=O)C3CC=CCC3C2=O)c1C (centres undefined)	-0.7
5	1.5	3	i	COc1ccc(CN(C)C[C@H]2OCCCC[C@H](C)Oc3ccc(NC(=O)Nc4ccc(OC)cc4)cc3C(=O)N([C@H](C)CO)C[C@@H]2C)cc1	-3.8
2	-2.6	11	i	COc1ccc(C[C@@H]2CCc3cnnn3COC[C@H](C(C)C)NC2=O)cc1	17
0	-1.7	-4	i	COc1ccc(CN(C)C[C@@H]2Oc3ccc(NC(=O)Cc4cn(C)c5ccccc45)cc3C(=O)N([C@@H](C)CO)C[C@@H]2C)cc1	2.1
1	-1.6	1	i	C[C@@H]1CN([C@@H](C)CO)C(=O)c2cc(NC(=O)Nc3ccc(F)cc3)ccc2O[C@@H](C)CCCCO[C@H]1CN(C)S(=O)(=O)c1cccs1	-1.4
-5	-2.3	-30	i	COC(=O)c1ccc2nc(-c3ccccc3)c(Cc3ccccc3)n2c1	-0.1
5	23	-8	i	CCCCOC(=O)NC1CCc2cc(OC)c(OC)c(OC)c2-c2ccc(SC)c(=O)cc21 (centres undefined)	7.1
-2	3.2	-2	i	C[C@H]1CCCCO[C@@H](CN(C)Cc2ccc(C(F)(F)F)cc2)[C@@H](C)CN([C@@H](C)CO)C(=O)c2cc(NC(=O)c3ccccc3)ccc2O1	-0.4
-9	5.3	-15	i	C[C@@H]1CN([C@@H](C)CO)C(=O)Cc2cc(NC(=O)c3ccncc3)ccc2O[C@@H]1CN(C)Cc1ccc(Cl)c(Cl)c1	4.7
-2	-3.2	0	i	C[C@@H]1CN([C@H](C)CO)S(=O)(=O)c2ccc(-c3ccncc3)cc2O[C@H]1CN(C)C(=O)CC1CC1	-5.2

Part of the list above, as comma-separated lines:
SMILES,Ecoli rRNA inh,Ecoli rRNA inh RFP,Ecoli rRNA inh OD600,FGF22 binding,AF4-AF9 inh
O=C(C[C@@H]1CC[C@@H]2[C@H](COC[C@@H](O)CN2CCC(F)(F)F)O1)NCc1ccc2c(c1)OCO2,i,.,.,i,1.4
O=C(C1CCC1)N1CCCCN2[C@@H](CO)[C@H](c3ccc(-c4ccncc4)cc3)[C@@H]2C1,1,0.0,3,i,-1.6
Cc1cccc(NC(=O)CN2C(=O)C3CC=CCC3C2=O)c1C (centres undefined),-2,-1.9,-2,i,-0.7
COc1ccc(CN(C)C[C@H]2OCCCC[C@H](C)Oc3ccc(NC(=O)Nc4ccc(OC)cc4)cc3C(=O)N([C@H](C)CO)C[C@@H]2C)cc1,5,1.5,3,i,-3.8
COc1ccc(C[C@@H]2CCc3cnnn3COC[C@H](C(C)C)NC2=O)cc1,2,-2.6,11,i,17
COc1ccc(CN(C)C[C@@H]2Oc3ccc(NC(=O)Cc4cn(C)c5ccccc45)cc3C(=O)N([C@@H](C)CO)C[C@@H]2C)cc1,0,-1.7,-4,i,2.1
C[C@@H]1CN([C@@H](C)CO)C(=O)c2cc(NC(=O)Nc3ccc(F)cc3)ccc2O[C@@H](C)CCCCO[C@H]1CN(C)S(=O)(=O)c1cccs1,1,-1.6,1,i,-1.4

(further entries)
Ecoli rRNA inh	Ecoli rRNA inh RFP	Ecoli rRNA inh OD600	FGF22 binding	canonical_smiles	AF4-AF9 inh
-9	0.3	-2	i	N#C[C@@H]1[C@H](c2ccccc2-c2ccccc2F)[C@@H](CO)N1C(=O)c1cccc(F)c1	2.6
12	-2.3	10	i	CC1=C(C(=O)N(C)C)CC(CC(=O)NCCN2CCOCC2)C(=O)N1CCCN1CCCC1=O (centres undefined)	-6.0
4	1.5	1	i	Cc1noc(C)c1NC(=O)Nc1ccc2c(c1)CC(=O)N([C@@H](C)CO)C[C@@H](C)[C@H](CN(C)Cc1ccncc1)O2	-1.7
-12	4.0	-27	i	O=C(Nc1cccc(F)c1)c1ccc(-c2ccccc2C(F)(F)F)o1	-1.4
-2	0.6	-3	i	CC(C)NC(=O)N(C)C[C@H]1Oc2ncc(C#Cc3ccc(F)cc3)cc2C(=O)N([C@H](C)CO)C[C@@H]1C	0.9
4	-0.9	1	i	NS(=O)(=O)c1cccc(C(=O)N2CCCc3ccccc32)c1	-3.6
2	14	-33	i	O=C(c1ccccn1)N1CC(=O)N2[C@H](CO)[C@@H](c3ccc(C#CC4CCCC4)cc3)[C@@H]2C1	0.6
12	0.7	17	i	O=C(NCCc1cccs1)Nc1nnc([C@H]2C[C@H](O)[C@@H](CO)O2)s1	-14
-5	-0.4	0	i	C[C@@H]1CN([C@H](C)CO)C(=O)c2cc(NS(=O)(=O)c3ccccc3)ccc2O[C@@H](C)CCCCO[C@H]1CN(C)S(=O)(=O)c1ccc(F)cc1	3.1
-3	7.0	5	i	C[C@@H]1CN([C@H](C)CO)S(=O)(=O)c2ccc(/C=C/c3ccccc3)cc2O[C@H]1CN(C)C(=O)Nc1cccc(F)c1	1.4
25	1.1	17	i	COC(=O)c1ccc2c(c1)S(=O)(=O)NC2C (centres undefined)	-3.0
-1	5.0	-4	i	C[C@@H]1CN([C@H](C)CO)C(=O)c2cc(C3=CCCC3)cnc2O[C@@H]1CN(C)Cc1cccc(F)c1	-0.2
5	1.0	7	i	C[C@@H]1CCCCO[C@@H](CN(C)C(=O)Nc2ccccc2)[C@@H](C)CN([C@H](C)CO)C(=O)c2cc(NC(=O)C3CCCCC3)ccc2O1	0.6
-2	-1.9	4	i	Cc1noc(C)c1NC(=O)N[C@@H]1C=C[C@@H](CC(=O)NCc2ccc(Cl)c(Cl)c2)O[C@H]1CO	-2.5
-1	0.1	4	i	OCCN1CCN(c2ncnc3c2ncn3[C@H]2CN(Cc3ccc4c(c3)OCO4)C[C@@H](CO)O2)CC1	-0.8
2	-3.0	-3	i	CN(C)C(=O)c1cccc(-c2ccc([C@H]3[C@H](CO)N4CCCCN(C(=O)C5CCC5)C[C@@H]34)cc2)c1	-6.1
2	-1.4	14	i	C[C@@H](NC(=O)[C@@H]1[C@@H](CO)[C@@H]2Cn3c(cccc3=O)[C@@H]2N1Cc1cccnc1)c1ccccc1	2.3
2	0.9	2	i	COc1ccc(-c2ccc([C@H]3[C@H](CO)N4C(=O)CN(C(=O)C5CC5)C[C@@H]34)cc2)cc1	-2.5
-20	-2.8	-31	i	O=C(NCc1ccccc1)C1Cc2c(-c3cccc(F)c3)ccnc2O1 (centres undefined)	-7.0
2	-1.4	1	i	O=C(C[C@H]1CC[C@@H](NC(=O)CCN2CCCCC2)[C@H](CO)O1)Nc1nccs1	-14
-2	2.6	6	i	C[C@H]1CN([C@@H](C)CO)C(=O)c2cc(C#CC3(O)CCCC3)cnc2O[C@@H]1CN(C)S(=O)(=O)c1cccc(F)c1	-8.7
5	-2.3	3	i	C[C@H]1CN([C@@H](C)CO)C(=O)Cc2cc(NC(=O)Nc3ccc(C(F)(F)F)cc3)ccc2O[C@H]1CN(C)Cc1ccc(C(F)(F)F)cc1	-4.7
0	1.3	-7	i	C[C@H](CO)N1C[C@H](C)[C@@H](CN(C)S(=O)(=O)c2ccccc2)Oc2ccc(NC(=O)Cc3ccccc3)cc2CC1=O	-2.6
4	-1.2	6	i	C[C@H]1CN([C@@H](C)CO)C(=O)c2cc(C3=CCCCC3)cnc2O[C@H]1CN(C)C(=O)CN1CCOCC1	-12
-1	-4.2	0	i	COc1ccccc1-c1ccc2c(c1)O[C@H](CN(C)C(=O)c1cccnc1)[C@H](C)CN([C@H](C)CO)S2(=O)=O	-0.4
5	-0.7	2	i	Cc1noc(C)c1S(=O)(=O)N(C)C[C@H]1Oc2c(NS(C)(=O)=O)cccc2C(=O)N([C@@H](C)CO)C[C@H]1C	-2.1
0	-3.7	3	i	COCC#Cc1cnc2c(c1)C(=O)N([C@H](C)CO)C[C@H](C)[C@H](CN(C)C(=O)Nc1ccccc1OC)O2	-3.9
3	-1.4	3	i	O=C(NCc1ccc(F)cc1)[C@H]1[C@H](CO)[C@H]2Cn3c(cccc3=O)[C@@H]1N2Cc1cccnc1	-2.4
20	1.2	11	i	Cc1cc2oc(=O)cc(-c3ccccc3)c2c(C)c1-c1ccc(OC(F)(F)F)cc1	-9.6
-16	4.8	-7	i	O=C1c2ccccc2C(=O)N1CCC1(O)C(c2ccccc2)=Nc2ccccc21 (centres undefined)	-0.9
-16	21	-35	i	CC(C)CC#Cc1cnc2c(c1)C(=O)N([C@H](C)CO)C[C@H](C)[C@@H](CN(C)Cc1cccc(F)c1)O2	12
6	-0.7	8	i	CN1C(=O)c2cc(NC(=O)NC3CCCC3)ccc2OC[C@H]2O[C@@H](CC(=O)O)CC[C@@H]21	-2.7
-8	1.2	8	i	Cc1ccccc1S(=O)(=O)NC(=O)C1(C)CCN1C(=O)c1ccccc1CCc1ccccc1 (centres undefined)	-7.2
-4	-2.3	-16	i	CC(C)NC(=O)N(C)C[C@H]1Oc2cc(C3=CCCCC3)ccc2S(=O)(=O)N([C@@H](C)CO)C[C@@H]1C	2.1
1	0.2	8	i	C[C@@H]1CN([C@@H](C)CO)C(=O)Cc2cc(NC(=O)Nc3ccc4c(c3)OCO4)ccc2O[C@@H]1CN(C)CC1CC1	11
-28	-3.3	-31	i	O=S1(=O)CC(N2CCC(c3ccccc3)CC2)CN1Cc1cn(Cc2ccc(C(F)(F)F)cc2)nn1 (centres undefined)	0.9
4	0.0	4	i	CC(C)NC(=O)Nc1ccc2c(c1)C(=O)N([C@@H](C)CO)C[C@@H](C)[C@@H](CN(C)C(=O)Nc1ccccc1)O2	2.4
-1	-0.8	6	i	COCC(=O)Nc1ccc2c(c1)[C@@H]1C[C@@H](CC(=O)NCc3ccccc3F)O[C@@H](CO)[C@@H]1O2	1.0
3	1.0	-3	i	CC(C)CC#Cc1ccc([C@@H]2[C@H]3CN(S(=O)(=O)Cc4ccccc4)CCCCN3[C@H]2CO)cc1	-0.3
12	1.0	5	i	O=C(NC1CC1)c1ccc(NC(=O)C2CCCCC2)cc1	-1.0
-2	-1.6	-4	i	C[C@@H]1CN([C@@H](C)CO)C(=O)Cc2cc(NC(=O)Cc3cn(C)c4ccccc34)ccc2O[C@@H]1CN(C)C(=O)Nc1ccc2c(c1)OCO2	4.6
6	-0.9	15	i	C[C@@H]1CN([C@@H](C)CO)C(=O)c2cc(C#CCN(C)C)cnc2O[C@H]1CN(C)Cc1ccccc1F	8.8
1	1.4	2	i	COC(=O)C[C@H]1C=C[C@@H](NC(=O)Nc2cccc(OC)c2)[C@@H](CO)O1	-0.2
-9	0.3	5	i	C[C@@H]1CN([C@@H](C)CO)C(=O)c2cc(NC(=O)CCCCCC(=O)Nc3ccccc3N)ccc2O[C@H]1CN(C)S(=O)(=O)c1ccc(Cl)cc1	1.7
2	-0.3	-5	i	C[C@@H]1CN([C@@H](C)CO)C(=O)c2cc(NC(=O)NC3CCCCC3)ccc2O[C@@H](C)CCCCO[C@@H]1CN(C)S(=O)(=O)c1ccc(Cl)cc1	0.1
5	1.3	-2	i	NC(Cc1ccc(C(F)(F)F)cc1)c1csc(NC(=O)Nc2ccccc2Cc2ccccc2)n1 (centres undefined)	6.1
-2	3.1	-8	i	COCOCCn1cc(CN2CCS(=O)(=O)N(Cc3ccc(-c4ccc(F)cc4)cc3)C(CC(C)C)C2=O)nn1 (centres undefined)	-0.4
26	4.7	9	i	COc1ccc(-c2nc3c4ccccc4ccn3c2Cc2ccc(C)cc2)cc1OC	2.4
4	-2.2	6	i	CC(=O)N(C)C[C@H]1Oc2ncc(C#C[C@H](C)O)cc2C(=O)N([C@@H](C)CO)C[C@H]1C	-3.4
2	-0.3	4	i	C[C@H](O)C#Cc1cnc2c(c1)C(=O)N([C@@H](C)CO)C[C@@H](C)[C@@H](CN(C)C(=O)c1ccc(F)cc1)O2	-3.1
6	4.2	2	i	CCCNC(=O)N(C)C[C@H]1Oc2ncc(-c3cccc(C#N)c3)cc2C(=O)N([C@@H](C)CO)C[C@@H]1C	-2.1
0	-1.1	6	i	N#Cc1cccc(-c2ccc([C@H]3[C@@H](CO)N4CCCCN(C(=O)Nc5ccccc5)C[C@@H]34)cc2)c1	-1.6
1	-1.7	3	i	Cc1noc(C)c1NC(=O)N(C)C[C@H]1Oc2c(NS(C)(=O)=O)cccc2C(=O)N([C@H](C)CO)C[C@@H]1C	-12
-1	-1.2	10	i	CNC[C@@H]1Oc2ncc(C3=CCCCC3)cc2C(=O)N([C@@H](C)CO)C[C@@H]1C	2.6
19	4.6	25	i	CCCn1c(SCC(=O)N(C)C2CCCCC2)n[nH]c1=O	-1.0
0	-1.6	0	i	C[C@H]1CN([C@@H](C)CO)C(=O)c2cc(C#CC3(O)CCCC3)cnc2O[C@@H]1CN(C)C(=O)C1CCC1	-0.8
1	-2.9	4	i	O=C(C[C@H]1C=C[C@H](NS(=O)(=O)c2ccccc2)[C@H](CO)O1)NCCN1CCCCC1	-0.7

A portion of the library; rates above refer to the full screens.
